Bioassay records deposited in PubChem BioAssay by National Center for Advancing Translational Sciences (NCATS).
D2 PAM: potentiates the human D2 dopamine receptor allosterically; P14416; DiscoveRx D2 beta-arrestin cells, luminescence, 90 min; 100% = 57 uM dopamine signal; potentiation, % (concentration not given with the values); 360,000 tested, 0.23% active; AID 624464; active = potentiation of 50% or more; inconclusive = 30% to 50%; inactive = 30% or less;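 note: compound concentration not given in the record; tested on top of an EC20 dose of dopamine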
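PathHunter beta-arrestin assay in DiscoveRx D2 cells. Compounds were added with an EC20 of dopamine (50 nM final) for 90 min at 37 deg C. Luminescence was read 1 h after detection reagent, with 57 uM dopamine as the EC100 control.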
TRPML1 inh: inhibitors of human TRPML1 channel. Q9GZU1. TRPML1-inducible cells, Ca2+ dye fluorescence, FDSS; stronger effect = lower value; inhibition of EC80 agonist-evoked calcium signal. activity change, negative = inhibition, % (test concentration not listed). 390,000 tested, 0.02% active. AID 624415; in the data active means activity change below about -50%; inconclusive means about -30% to -50%; inactive means above about -30%;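 note: stimulus is agonist 54-4 at its EC80 concentration; % is set by controls: 0 for no effect and ±100 for the full control effect; compound concentration not given in the record; the text of the record puts the active cut at -80%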
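TRPML1-DL cells, Tet-induced overnight (~16 h, 37 °C) at 1,500 cells/well, were loaded with Ca8 no-wash dye plus quencher for 45-90 min at room temperature. Compounds were pinned during FDSS kinetic reading; agonist 54-4 at EC80 (4 uM final) then added.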
D2 ag: agonists of human D2 dopamine receptor (beta-arrestin); P14416; DiscoveRx PathHunter D2 beta-arrestin, luminescence, 90 min; 100% = 57 uM dopamine signal; activation, % (no concentration beside the values); 360,000 tested, 0.084% active; AID 624465; in the data active = activation above about 40%; inconclusive = about 15% to 40%; inactive = below about 15%; note: compound concentration not given in the record; the text of the record calls up to 30% inactive
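DiscoveRx PathHunter D2 beta-arrestin cells (2,100/well) attached overnight, then compound-stimulated 90 min at 37 C in HBSS/10 mM HEPES/0.1% Tween-20 buffer; beta-galactosidase complementation read by luminescence after 1 h at ambient temperature. Dopamine 57 uM final (EC100) as control.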
TRPML1 agonist: agonists of human TRPML1 channel | 410,000 tested, 0.12% active | TRPML1-expressing cells, Ca2+ dye fluorescence, FDSS; host cell line not named in the record; reference of the full effect not given here | activation, % (test concentration not listed); in the data active = activation above about 50%; inconclusive = about 30% to 50%; inactive = below about 30%; note: 0% is about no effect; the text of the record puts the active cut at 80%
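Tetracycline-induced TRPML1-DL cells are seeded and incubated overnight before loading with a no-wash Ca2+ dye and quencher. Agonist activity is taken from the 110 s fluorescence read following compound pin-transfer on an FDSS, before EC80 54-4 challenge.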
Six1-Eya2 blk: inhibitors of human Six1/Eya2 interaction | Q15475+O00167 | AlphaScreen GST-Six1/His-Eya2 binding, biochemical; stronger effect = lower value; control for the full effect not named in the record | activity change, % (concentration not given with the values) | 360,000 tested, 0.56% active | AID 651725; in the data active = activity change below about -65%; inconclusive = about -30% to -65%; inactive = above about -30%; note: % is set by controls: 0 for no effect and ±100 for the full control effect
Target sequence (O00167 whole entry, looked up): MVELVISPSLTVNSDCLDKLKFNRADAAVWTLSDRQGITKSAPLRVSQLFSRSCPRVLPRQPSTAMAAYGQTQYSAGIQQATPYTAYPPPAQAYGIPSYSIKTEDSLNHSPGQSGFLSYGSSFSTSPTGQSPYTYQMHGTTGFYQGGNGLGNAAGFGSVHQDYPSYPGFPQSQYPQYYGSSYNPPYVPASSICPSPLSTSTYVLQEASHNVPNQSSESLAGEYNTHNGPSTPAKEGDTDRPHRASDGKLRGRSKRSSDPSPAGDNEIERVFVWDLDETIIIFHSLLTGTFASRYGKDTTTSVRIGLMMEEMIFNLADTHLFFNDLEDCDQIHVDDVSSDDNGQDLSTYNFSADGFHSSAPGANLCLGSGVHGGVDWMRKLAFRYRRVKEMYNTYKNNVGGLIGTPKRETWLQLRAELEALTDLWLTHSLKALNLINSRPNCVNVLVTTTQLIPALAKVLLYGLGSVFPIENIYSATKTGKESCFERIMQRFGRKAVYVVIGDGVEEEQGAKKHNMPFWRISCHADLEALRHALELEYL
Target sequence (Q15475 whole entry, looked up): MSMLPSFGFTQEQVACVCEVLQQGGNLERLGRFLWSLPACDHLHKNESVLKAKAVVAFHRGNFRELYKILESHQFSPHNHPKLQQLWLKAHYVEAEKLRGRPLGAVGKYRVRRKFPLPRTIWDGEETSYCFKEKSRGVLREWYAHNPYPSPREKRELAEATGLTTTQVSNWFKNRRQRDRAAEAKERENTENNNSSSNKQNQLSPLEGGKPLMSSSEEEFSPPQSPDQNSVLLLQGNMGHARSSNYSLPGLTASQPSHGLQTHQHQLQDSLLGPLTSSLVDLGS
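AlphaScreen luminescence read after one hour at 37 °C in darkness. Pin-transferred compounds met GST-Six1 and His-Eya2 protein (5X stock 250 nM/500 nM) plus glutathione donor and Ni-chelate acceptor beads (5X, 50 ug/mL).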
PINK1 expr mod: changes PINK1 expression; AID 624263; 410,000 tested, 0.2% active; PINK1 immunofluorescence, high-content cytometry, 24 h; Potency, µM (series often up to 76.6 µM), inactives show at the highest dose activation (PINK1 increase), usual class: activators; active = well fitted activation curve with a large enough effect; inconclusive = small, poorly fitted or top-dose-only effect; inactive = flat fitted curve, though single readings scatter; cell line not stated here;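 note: potency is the fitted concentration of half-maximal effect; % of control where 0% means no effect; nearly all actives have a fitted effect of over 65% in size; a mitochondrial uncoupler was the plate control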
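Compound titrations (5 concentrations, 24 h) on a stable cell line; DMSO and CCCP controls. Endpoint: fixed-cell PINK1 immunofluorescence with mitochondrial, cell and nuclear markers, scanned by microplate cytometer.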
* hit, by the source's call; ? = inconclusive; nt = not tested or not shown; [ ] = dose if it differs, or a comment.

smiles	D2 PAM	TRPML1 inh	D2 ag	TRPML1 agonist	Six1-Eya2 blk	PINK1 expr mod
COc1cc2ncnc(NCCc3ccccc3)c2cc1OC	-19.8	-1.5	2.9	0.3	-16.2	0.0%
CCOC(=O)c1c(NC(=O)COC(=O)c2nc(Cl)ccc2Cl)sc(C(=O)NC)c1C	5.9	-9.2	0.4	0.0	-7.8	2.6%
COc1ccc(OC)c(N(CC(=O)N2CCN(c3cc(Cl)ccc3C)CC2)S(C)(=O)=O)c1	-6.8	27.1	-2.5	1.2	-18.8	1.5%[38.3 µM]
Clc1ccc(-c2cn3cc(Cl)ccc3n2)cc1	-3.8	-3.4	4.4	2.9	7.1	1.0%
COc1ccc(S(=O)(=O)NCCc2ccncc2)cc1	0.1	34.2	0.8	1.0	0.3	0.9%
Cc1nc(-c2ccc(NC(=O)c3ccccc3Br)cc2)cs1	-8.3	5.5	-2.2	0.1	-10.7	-0.6%
COCCN(C(=O)CCC(=O)Nc1cc(C)on1)C(C(=O)NC(C)(C)C)c1cccc(OC)c1OC (stereo unspecified)	-23.1	-16.0	-4.1	-0.5	11.0	-0.2%
COc1c(Cl)ccc(Cl)c1C(=O)NC(=O)Nc1nc(C)cc(C)n1	-27.1	11.5	0.4	2.2	0.6	1.5%
COC(=O)c1ccc(C23CC4(C2)[C@H](CN(Cc2ccc(-c5ccccc5)cc2)[C@@H]4c2ccccc2)C3c2ccc(C(F)(F)F)cc2)cc1 (stereo partly specified)	-4.9	-14.2	-1.6	1.0	-0.9	3.3%
CCN(CC)C(=O)c1nc[nH]c1C(=O)N1CCc2ccccc2C1	-1.9	-7.6	1.0	-0.3	13.1	0.2%
C#CCOCCOCCOCCNc1nc(N2CCN(C(=O)CCCCCCCCCCNC(=O)Cn3cc(C[C@@H](C)O)nn3)CC2)nc(N2CCN(C(=O)CCCCCCCCCCNC(=O)[C@@H](CCSC)n3cc(CCO)nn3)CC2)n1	-2.2	-9.6	-2.1	0.1	2.0	10.2%
CCN1C(=O)[C@@H]2Cc3c([nH]c4ccccc34)C(c3ccc(OC)cc3)N2C1=S (stereo partly specified)	-2.8	-2.1	-2.1	2.1	-9.9	2.0%
CCc1cccc(NC(=O)Cc2cn(C)c3ccccc23)c1	-3.6	-0.9	-2.6	0.2	-18.7	-0.3%
CC(C)C[C@H](NC(=O)Nc1cccc(Cl)c1)C(=O)O	4.4	-4.0	-1.4	-0.7	14.1	2.2%
O=C(O)c1ccc(/C=N/NC(=O)c2ccc(NS(=O)(=O)c3cccs3)cc2)cc1	-3.6	-7.0	-0.1	0.4	-2.5	-0.1%
CN(Cc1ccccc1)C(=O)COC(=O)c1cncc(Br)c1	-2.6	8.0	-0.9	1.3	0.5	-3.5%
COc1ccc2c(c1)sc1ncc(C(=O)NCc3ccccc3F)c(=O)n12	nt	-14.8	nt	-0.1	nt	-0.8%
Cc1c(N=C2N=C(NC(=O)c3ccc(F)cc3)c3ccccc32)c(=O)n(-c2ccccc2)n1C	-3.6	-2.3	-5.1	0.0	-1.7	39.8µM*
Cc1cn(C)c(CC(=O)NCc2ccc(Cl)cc2)c1C(=O)O	nt	0.7	nt	-1.0	nt	1.2%
O=S(=O)(NC(=S)Nc1ccccc1)c1ccc(F)cc1	-0.5	nt	-3.3	nt	2.5	4.5%
Cc1cccc(C)c1NC(=O)CN1C(=O)S/C(=C\c2cccn2-c2cccc(C(=O)O)c2)C1=O	-7.6	1.1	-2.5	0.5	-11.3	2.2%
COCCCNC(=O)C(=O)Nc1ccc2c(c1)N(S(=O)(=O)c1cccs1)CCC2	-7.4	34.7	-3.5	-0.6	-1.6	2.5%
COC(=O)c1ccc(C2C(Oc3ccc(OC)cc3)C(=O)N2CCc2ccc(OC)c(OC)c2)cc1 (stereo unspecified)	-13.5	17.0	-2.1	0.8	3.3	2.7%
N=C(N)SCCN	-3.4	6.6	-2.2	-0.8	0.4	2.3%
COc1c(C)cc(Br)cc1C(=O)Nc1ccc(N2CCN(S(C)(=O)=O)CC2)cc1	14.5	15.4	6.4	0.1	0.8	9.3%[38.3 µM]
CC1CCc2c(sc(NC(=O)COC(=O)c3ccc(NC(=O)CC#N)cc3)c2C#N)C1 (stereo unspecified)	-0.2	13.7	-2.4	0.7	5.0	7.1%
CCn1c(SCC(=O)Nc2ccc(N(C)C)cc2)nnc1-c1cccc(C)c1	-9.4	-2.3	-3.3	-1.1	-14.6	-0.8%
CCOC(=O)C1=CN(CC)CCC1=O	nt	7.5	-0.6	-0.5	-0.6	0.8%
COc1ccc(OC)c(S(=O)(=O)N2CCC(C(=O)NCc3ccccc3)CC2)c1	-9.2	-9.7	0.7	4.9	1.3	-0.9%
C=CCn1c(Cc2cccs2)nnc1SCC(=O)Nc1ccc(OC)cc1	6.1	-0.9	0.2	-0.2	3.9	-1.3%
Cc1cccc(S(=O)(=O)NC(=O)C2(C)CCN2C(=O)Cc2cc(F)ccc2F)c1 (stereo unspecified)	-27.2	nt	-4.0	-0.3	-1.7	1.4%
CCc1ccc(CN(C)C(=O)CCc2nc3ccccc3n(-c3ccc(OC)cc3)c2=O)cc1	-3.1	26.8	5.2	0.7	-10.9	-2.3%
CCCN1Cc2cccc(C(=O)Nc3cc(OC)cc(OC)c3)c2C1=O	-7.4	?	0.0	1.5	-19.2	1.8%[38.3 µM]
O=C(C1CC(=O)N(C2CCCCC2)C1)N1CCc2ccccc21 (stereo unspecified)	-7.0	1.9	0.1	0.0	0.2	0.4%
COc1ccc(OC)c(-c2csc(NC(=O)c3ccc(F)cc3)n2)c1	-8.6	nt	1.0	nt	8.3	12.2%
O=C(C1CCCCC1)N(Cc1nc2sc3c(c2c(=O)[nH]1)CCCC3)Cc1cccs1	-8.3	1.4	-2.5	0.4	-6.1	18.1%
CCN(CC)CCC(=O)c1ccc(F)cc1	-6.9	8.7	-0.7	-0.1	2.6	-0.5%
CCOC(=O)CCCNC(=O)COC(=O)/C=C/c1ccc2c(c1)OCO2	-2.4	37.8	-14.4	0.3	-5.0	5.1%
Cc1ccccc1Nc1nc(N)nc(C)c1Br	-4.9	-3.4	2.2	-0.4	0.6	1.4%
O=C1CCc2cc(S(=O)(=O)NC(C(=O)N3CCN(c4ccccn4)CC3)c3ccccc3)ccc2N1 (stereo unspecified)	-5.6	-0.7	-7.2	-0.6	4.7	1.7%
CCOc1ccc2[nH]c(=O)c(CN(CCO)C(=O)c3ccccc3F)cc2c1	2.3	-23.3	-3.7	1.1	8.0	-1.9%
O=[N+]([O-])c1ccc(N2CCN(S(=O)(=O)c3ccccc3[N+](=O)[O-])CC2)cc1NCc1cccnc1	-2.8	2.9	1.7	1.6	-14.4	0.9%
CC(C)(OC(=O)c1ccc(F)cc1)c1cc2ccccc2c(=O)o1	0.8	2.0	3.2	2.1	9.5	2.4%
COc1cccc(Cn2c(CNC(=O)C(C)C)nc3cccnc32)c1	nt	3.8	nt	-0.6	nt	1.6%
O=C(c1cccc(S(=O)(=O)N2CCc3ccccc32)c1)N1CCc2ccccc2C1	-1.1	47.7	0.6	3.1	-4.4	0.8%
COc1ccccc1C(=O)N1N=C(c2ccc(NS(C)(=O)=O)cc2)CC1c1cccs1 (stereo unspecified)	3.7	14.1	5.2	2.2	9.8	-0.1%
COc1ccc(OC)c2[nH]c(C(=O)N/N=C/c3ccccc3O)cc12	-51.2	-12.4	-1.3	-0.4	-73.7*	9.0%
CCOc1ccccc1NC(=O)CCC(=O)Nc1ccc2nc(N3CCN(C)CC3)cc(C)c2c1	-25.1	8.3	-5.5	-1.6	-0.6	2.1%
O=C(CSc1nc2ccccc2c(=O)n1-c1ccc(OC(F)F)cc1)NC1CC1	0.3	-15.2	4.4	2.5	-0.3	-0.2%
c1ccc(CN=C2NN=C(c3ccccc3)CS2)cc1	-45.9	4.8	-5.4	-0.8	-29.3	1.1%
CC(C)CN1CCN(Cc2cccn2-c2ccc(Cl)cn2)CC1CCO (stereo unspecified)	-4.7	8.1	-0.3	-0.1	0.0	0.8%
CC(=O)Nc1ccc(S(=O)(=O)N2CCN(Cc3cccnc3)CC2)cc1	-17.2	10.9	0.2	1.5	-0.4	1.3%[38.3 µM]
Cc1nc2ccccc2c(=O)n1NC(=O)c1ccc(Cl)cc1	-7.7	-7.1	-2.5	1.6	2.8	-0.7%
CCOC(=O)COc1ccc(C(=O)CC)cc1OC	-4.0	-8.1	1.5	0.5	-0.5	-0.3%
O=C(c1ccccc1)C(CCC(CN1CCOCC1)C(=O)c1ccccc1)CN1CCOCC1 (stereo unspecified)	-43.9	46.0	-4.3	0.7	-4.9	-0.4%
CC(C)NC(=O)C1(C)CCN1Cc1ccc(-c2ccccc2)cc1 (stereo unspecified)	-6.8	nt	-2.0	-1.0	2.1	1.6%
CC1CCN(S(=O)(=O)c2ccc3c(c2)c(=O)c(C(=O)NCc2ccc(Cl)cc2)cn3C)CC1	nt	-8.0	nt	0.5	nt	2.9%
O=S1(=O)CC(N2CC=CC2)CN1Cc1cn(Cc2ccc(Cl)cc2)nn1 (stereo unspecified)	nt	nt	nt	-0.4	-2.3	0.2%
